Screens (PubChem BioAssay)
Cruzain Triton: blocks cruzain activity in presence of Triton detergent; Potency, µM, inactives show max response, negative = inhibition, most hits filed as inhibitors; purified cruzain, Z-FR-AMC fluorescence, 0.01% Triton; AID 1478; 200,000 compounds, 0.43% hits; active means well fitted curve in the direction sought with a large enough effect; inconclusive means small, poorly fitted or top-dose-only effect, or another doubt; inactive means no such curve, though single readings can be large; an effect the other way counts as inactive or inconclusive;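 further: plate controls were neutral wells for no effect and buffer without enzyme for full effect; nearly all actives have a fitted effect of over 40% in size; top concentration of the series not given in the record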
Target sequence (P25779 123-467 limits assumed): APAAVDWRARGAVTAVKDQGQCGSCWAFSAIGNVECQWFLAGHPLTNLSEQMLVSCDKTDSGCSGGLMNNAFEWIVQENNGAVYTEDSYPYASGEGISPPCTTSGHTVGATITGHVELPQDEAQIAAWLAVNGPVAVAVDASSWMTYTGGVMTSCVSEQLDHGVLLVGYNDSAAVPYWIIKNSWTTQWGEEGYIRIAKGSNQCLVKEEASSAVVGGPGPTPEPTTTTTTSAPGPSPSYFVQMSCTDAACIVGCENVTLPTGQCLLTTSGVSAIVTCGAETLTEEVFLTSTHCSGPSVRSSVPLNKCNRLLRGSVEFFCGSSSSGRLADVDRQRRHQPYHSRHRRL
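Enzyme 1.5 nM, Z-FR-AMC 2 uM, NaOAc 100 mM pH 5.5, DTT 5 mM, Triton X-100 0.01%; 15 min RT compound preincubation; kinetic ex360/em450, 60 s delta.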
RE007 growth inh: less growth of the S. pombe RE007 Vpr strain; S. pombe RE007 Vpr strain, BacTiter-Glo ATP luminescence, 24 h; control for the full effect not named in the record; Potency, µM (top dose mostly 92.2 µM), without a hit: at the highest dose activity change, negative = less growth; AID 651644; 360,000 compounds, 0.21% hits; active = well fitted falling curve with a large enough effect; inconclusive = small, poorly fitted or top-dose-only effect; inactive = no such curve, though single readings can be large or run the other way;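 further: on the % scale 0 is the no-effect control and ±100 the full control effect; nearly all actives have a fitted effect of over 50% in size; the assay follows cell death caused by Vpr and the record does not say whether a fall means rescue or toxicity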
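Fission yeast RE007 carrying one integrated HIV-1 vpr copy, seeded at OD 0.01 in PMG+AL medium with 23 nL pinned compound. Grown 24 h at 30 degrees; viability read by BacTiter-Glo luminescence after 5 min.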
NS1 inh: influenza NS1 inhibition; S. cerevisiae slowed by influenza A NS1, growth recovery by OD600; Potency, µM (doses to about 46.1 µM), without a hit: top-dose activity, positive = more growth; 270,000 compounds, 0.4% hits; further: actives are rising curves; nearly all actives have a fitted effect of over 50% in size
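Growth recovery, yeast-based: influenza A NS1 expressed in S. cerevisiae causes slow growth, and suppressors are detected by OD600. The parent strain without NS1 is used as positive control.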
StopGo reporter: lowers the luciferase signal of an FMDV 2A StopGo reporter; human cells with a luciferase reporter of 2A StopGo recoding; control for the full effect not named in the record; Potency, µM (top dose mostly 57.9 µM), without a hit: at the top dose signal change, negative = less light; 410,000 compounds, 1.2% hits; AID 1159524; active = well fitted falling curve with a large enough effect; inconclusive = small, poorly fitted or top-dose-only effect; inactive = no such curve, though single readings can be large or run the other way; tested in HEK293T cells; further: on the % scale 0 is the no-effect control and ±100 the full control effect; nearly all actives have a fitted effect of over 45% in size; luciferase light after 4 h
Lassa entry inh: blocks Lassa virus binding to or entry into cells; Potency, µM (series often up to 37.9 µM), for inactives: at the highest dose activity change, negative = inhibition, usual class: inhibitors; AID 540256; Lassa virus pseudotype entry inhibition, cell reporter; control for the full effect not named in the record; 300,000 compounds, 1.2% hits; active means well fitted inhibition curve with a large enough effect; inconclusive means small, poorly fitted or top-dose-only effect, or effect the other way; inactive means flat fitted curve, though single readings scatter; tested in HEK293 cells; further: on the % scale 0 is the no-effect control and ±100 the full control effect; nearly all actives have a fitted effect of over 50% in size; luciferase read-out
Marburg entry inh: blocks Marburg virus binding to or entry into cells. Marburg virus pseudotyped entry inhibition, cell reporter; control for the full effect not named in the record; about a third of the inactives were read at about 46 µM. Potency, µM (series often up to 37.8 µM), inactives show top-dose activity change, negative = inhibition, actives largely listed as inhibitors. 300,000 compounds, 1.8% hits; active = well fitted inhibition curve with a large enough effect; inconclusive = small, poorly fitted or top-dose-only effect, or effect the other way; inactive = flat fitted curve, though single readings scatter; tested in HEK293 cells; about a fifth of its hits are not listed in these tables; further: on the % scale 0 is the no-effect control and ±100 the full control effect; luciferase read-out
Cruzain inh noDet: blocks cruzain activity in detergent-free assay; purified cruzain, Z-FR-AMC fluorescence, no detergent; Potency, µM, inactives show max response, negative = inhibition, usual class: inhibitors; 200,000 compounds, 2.3% hits; active means well fitted curve in the direction sought with a large enough effect; inconclusive means small, poorly fitted or top-dose-only effect, or another doubt; inactive means no such curve, though single readings can be large; an effect the other way counts as inactive or inconclusive;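 further: plate controls were enzyme without inhibitor for no effect and buffer without enzyme for full effect; nearly all actives have a fitted effect of over 40% in size; top concentration of the series not given in the record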
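Purified cruzain at 1.5 nM, pre-incubated 15 min with compound at room temperature in 100 mM sodium acetate pH 5.5, 5 mM DTT, 0.00005% Triton X-100. Reaction started with 2 uM Z-FR-AMC; AMC fluorescence increase over 60 s gives rate.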
SARS PLP yeast: blocks SARS-CoV papain-like protease in a yeast assay. S. cerevisiae expressing SARS-CoV PLpro, growth rescue; control for the full effect not named in the record. Potency, µM (titrated, usually from 32.9 µM), inactives show at the top dose activity, positive = growth rescue. 330,000 compounds, 0.19% hits. AID 485353; further: 0% is about no effect; nearly all actives have a fitted effect of over 55% in size; growth read by luminescence after 48 h
Active calls of the source: *; ? = inconclusive; . = no result given; [ ] = remark or other dose. Unless noted, the call rests on the fitted dose curve; in most records, active means well fitted rising curve with a large enough effect; inconclusive means small, poorly fitted or top-dose-only effect; inactive means no such curve, though single readings can be large or run the other way. Potency means the concentration at half of the fitted maximal effect.

SMILES	Cruzain Triton	RE007 growth inh	NS1 inh	StopGo reporter	Lassa entry inh	Marburg entry inh	Cruzain inh noDet	SARS PLP yeast
Cc1cccc(-n2c(C)nc3cc(C(=O)N4CCOCC4)ccc32)c1	.	6%	12%	33%[activator]	.	.	.	0%
O=C(Nc1ccc2ccccc2c1)c1cc(F)c(F)cc1Cl	.	-19%	14%	31%[activator]	?	7.1µM*	.	1%
O=C(CSc1ccc(Cl)cc1)N/N=C/c1cccnc1	.	-8%	.	-3%	-19%	7%	.	-5%
CC(=O)N1CCN(C(=O)CCc2nnc(CCCCc3ccccc3)o2)CC1	.	5%	4%	2%	2%[46.1 µM]	-3%[46.1 µM]	.	1%
CC(=O)c1ccc(OCC(=O)N2CCN(S(=O)(=O)c3ccc(C)cc3C)CC2)cc1	.	26%	-3%	0%	3%	22%	.	-6%
Cc1c(Cl)ccc(S(=O)(=O)NCCCn2ccnc2)c1Cl	.	-1%	11%	13%	.	.	.	-3%
COc1ccc(NC(=O)N(Cc2cccs2)Cc2cc3cc4c(cc3[nH]c2=O)OCO4)cc1	-8.3%	.	5%	.	-2%	5%	?	13%
O=C(NC1CC2CCCC(C1)N2C(=S)Nc1ccc(Cl)cc1)C1CC1 (stereo unspecified)	.	-11%	7%	3%	6%[46.1 µM]	-2%[46.1 µM]	.	5%
Cn1c2c(c(=O)[nH]c1=O)C(c1ccc(O)cc1)C1=C(N2)c2ccccc2C1=O (stereo unspecified)	.	-2%	-1%	?	?	?	.	1%
O=[N+]([O-])c1cccc(CP(=O)(c2ccccc2)c2ccccc2)c1	.	4%	.	-20%	-13%	14%	.	-1%
CCOc1ccc(-c2ccc3nnc(SCC(=O)NCC4CCCO4)n3n2)cc1 (stereo unspecified)	.	-15%	.	-16%	-16%	11%	.	.
COc1ccccc1N1CCN(CCCCNS(=O)(=O)c2cccc3c(N(C)C)cccc23)CC1	-2.2%	.	8%	.	15µM*	7.1µM*	6%	.
COC(=O)c1onc(C(=O)c2ccccc2)c1C(=O)OC	-1.2%	-27%	-5%	-8%	4%	-7%	-6%	-5%
Cc1ccc(C(=O)NCC(=O)OCC(=O)c2ccc(Br)s2)cc1	.	1%	.	-8%	5%	-3%	.	6%
CCCOc1cccc(C(=O)O)c1	2.2%	-1%	-9%	-10%	16%	-1%	5%	-2%
CCCC(=O)Nc1c2c(nn1-c1ccc(C)cc1)CS(=O)(=O)C2	.	0%	7%	-15%	.	.	.	-1%
CCOC(=O)c1ccccc1NC(=O)COC(=O)CN1C(=O)NC2(CCCC2)C1=O	.	3%	-3%	-13%	1%	3%	.	1%
COc1ccc(C2C3=C(CC(C)(C)CC3=O)Nc3c2c(=O)[nH]c2nc(C)nn32)cc1 (stereo unspecified)	0.2%	-14%	-7%	-5%	4%	0%	-4%	-10%
Cn1c(=N)c(S(=O)(=O)c2ccccc2)cc2c(=O)n3ccccc3nc21	?	-14%	?	-4%	-19%	4%	?	3%
CC(Sc1nnc2ccccn12)C(=O)Nc1ccc2c(c1)OCO2 (stereo unspecified)	.	-2%	-1%	19%	16%[46.1 µM]	?	.	0%
O=[N+]([O-])c1ccc(NS(=O)(=O)c2ccccc2)c(Cl)c1	.	-5%	.	3%	?	11µM*	.	.
O=[N+]([O-])c1ccc(N2CCCCC2)cn1	.	-23%	0%	35%[activator]	.	.	.	-1%
COCCn1c(C)cc(/C=C2/SC(=O)N(CC(=O)N3CCCC3)C2=O)c1C	.	-7%	25%	0%	.	25%[46.1 µM]	.	-1%
CC1CCN(c2nc(-c3ccco3)c3c(c2C#N)CC(C)(C)OC3)CC1	-7.2%	3%	-33%	?	.	.	?	2%
COc1cc(C(=O)Nc2cc(OC)c(OC)c(OC)c2)ccc1OCc1c(C)noc1C	.	16%	.	-21%	-20%	5%	.	-6%
Cc1cnn(CCC(=O)NNC(=S)Nc2ccc(F)cc2)c1	5.2%	12%	2%	-4%	10%	26%	-2%	-1%
COc1ccccc1NC(=S)N(CCCN1CCOCC1)Cc1ccccn1	-0.6%	-1%	5%	-4%	1%	-4%	-2%	13%
N#Cc1cccc(NC(=O)CCn2ccnc2)c1	10%	1%	-9%	5%	9%	15%	-3%	20%
CCc1nnc(NC(=O)CSc2nnc(-c3ccco3)n2C)s1	2.1%	6%	-3%	-6%	9%	11%	3%	0%
NC(=O)C1CCN(C(=O)COc2ccc3ccc(=O)oc3c2)CC1	.	-4%	5%	-23%	.	.	.	-4%
CSCCC(NC(=O)c1ccc(Cl)cc1Cl)C(=O)OC1CCCCC1=O (stereo unspecified)	.	-19%	.	24%	18%	-2%	.	-1%
Cn1ccc(=Nc2ccc(NC(=O)c3ccc(N=c4ccn(C)c5ccc([N+](=O)[O-])cc45)cc3)cc2)cc1	.	?	-41%	-4%	.	.	.	-1%
CCCC(NC(=O)COc1cc2c(c3oc(=O)cc(C)c13)CCC(C)(C)O2)C(=O)O (stereo unspecified)	.	3%	1%	-20%	.	.	.	4%
CC(Sc1ncnc2ccccc12)C(=O)Nc1ccc2c(c1)OCO2 (stereo unspecified)	-0.9%	17%	-47%	-16%	-5%	?	-13%	-8%
COCC(=O)NC1CCN(C(=O)Nc2ccc(Br)cc2)CC1	4.5%	-16%	3%	1%	19%	?	3%	1%
CC(C)n1ncc(C(N)=O)c1N	5.0%	2%	1%	4%	-18%	-9%	-7%	1%
O=C(Nc1ccc(F)c(Cl)c1)c1cc(S(=O)(=O)N2CCc3ccccc3C2)ccc1F	0.6%	.	.	4%	28%[46.1 µM]	.	-6%	.
Cc1ccc(NC(=O)CCS(=O)(=O)c2ccc3c(c2)oc(=O)n3C)c(Br)c1	-2.9%	.	.	-20%	8%[46.1 µM]	.	2%	.
CC(=O)N1CCN(C(=O)c2cc3ccccc3o2)CC1	.	-9%	8%	7%	2%[46.1 µM]	-1%[46.1 µM]	.	0%
CCN(CCN(C)C)C(=O)c1ccc2c(c1NCCO)C(=O)c1ccccc1C2=O	.	?	.	-21%	-10%	-23%[46.1 µM]	.	-5%
O=[N+]([O-])c1cc(F)cc(F)c1Nc1cc(F)cc(F)c1	.	2%	.	-24%	10%[46.1 µM]	24%[46.1 µM]	.	.
O=C(C1CC(c2ccc(F)cc2)=NO1)N1CCc2ccccc2C1 (stereo unspecified)	-6.3%	-4%	-3%	48%[activator]	.	.	1%	1%
CCc1ccc(-n2c(=O)c3sc4ccccc4c3n(CC(=O)N3CCCC3)c2=O)cc1	-2.1%	.	.	-12%	?	13%[46.1 µM]	4%	.
CCCNc1nc(Cl)nc(NCc2cccnc2)n1	.	0%	3%	-13%	-13%	3%[14.2 µM]	.	2%
CSc1ccc(NC(=O)NCCCN2CCC(Cc3ccccc3)CC2)cc1	.	-15%	-1%	-28%	.	2%	.	-4%
Cc1ccc2c(c1)N(CC(=O)NC1CCCC1)C(=O)c1cccnc1O2	.	-23%	1%	-21%	.	.	.	-1%
CCN(CC)c1nc(-c2ccccc2Cl)c2cc(Br)ccc2n1	-6.0%	.	.	-23%	-1%[46.1 µM]	-16%[46.1 µM]	-9%	.
Cc1nc2ccc(S(=O)(=O)NCC(=O)NCCN3CCCCC3C)cc2s1 (stereo unspecified)	11%	-5%	-8%	-13%	3%	-2%	-5%	-1%
O=C1CCCN2N=C(SCC(=O)Nc3nccs3)SC2=N1	.	8%	-6%	-12%	4%[46.1 µM]	-2%[46.1 µM]	.	0%
CCOC(=O)c1ccc(NC(=O)CSc2nc3c(c(=O)[nH]2)CN(Cc2ccccc2)CC3)cc1	-7.7%	.	.	3%	-21%[46.1 µM]	-5%[46.1 µM]	-9%	.
CC(=O)c1sc2nsc(SCCN3CCOCC3)c2c1N	.	9%	6%	14%	16%	-11%[14.2 µM]	.	1%
COc1cc(S(=O)(=O)NCCCN2CCOCC2)ccc1-n1cnnn1	.	5%	-1%	-6%	11%[46.1 µM]	20%[46.1 µM]	.	-7%
CCOC(=O)N1CCC(n2c(SCC(=O)OCc3ccccc3)nc3ccsc3c2=O)CC1	-0.8%	10%	4%	?	-8%	?	8%	0%
CC(=O)c1ccc(NC(=O)COC(=O)CCC2CCCC2)cc1	.	-14%	.	15%	3%[46.1 µM]	?	.	-8%
S=C(NCc1cccc(Cl)c1)NCc1ccco1	.	16%	24%	8%	.	.	.	3%
CCOC(=O)N1CCN(C(c2ccc(C(C)C)cc2)c2sc3nc(C)nn3c2O)CC1 (stereo unspecified)	1.8%	11%	-3%	19%	.	.	?	6%
CCOc1ccccc1-n1c(SCC(N)=O)nnc1-c1cccnc1	-1.0%	4%	1%	-16%	1%	-11%	-2%	3%
O=C(O)c1ccc(NC(=O)C2CCCCC2)cc1	-1.1%	-7%	11%	16%	?	2%	-7%	4%
N#Cc1c(C(F)(F)F)cc(C2CC2)[nH]c1=O	?	-5%	-3%	-25%	.	.	?	7%
O=C(OCN1C(=O)c2ccccc2C1=O)c1cccs1	-0.1%	27%	0%	-17%	8%	?	1%	1%
Further entries.
SMILES	Cruzain Triton	RE007 growth inh	NS1 inh	StopGo reporter	Lassa entry inh	Marburg entry inh	Cruzain inh noDet	SARS PLP yeast
COC(=O)CCC(=O)OC1(C)C(=O)C=C2C=C(C3CC3)N(C3CCCC3)C=C2C1=O (stereo unspecified)	.	0%	2%	-8%	.	.	.	-4%
CCOC(=O)c1ccc(NC(=O)CSc2nc(=O)n3cccc(C)c3n2)cc1	.	16%	.	-18%	-1%[46.1 µM]	-21%	.	1%
COC(=O)[C@H](CCSC)NC(=O)NCc1ccccn1	5.2%	9%	-8%	21%	13%	9%	-4%	3%
Cc1ccc(C)c(NC(=O)Cn2cc(C(=O)c3cccs3)c3ccccc32)c1	-7.5%	.	.	?	?	?	-4%	.
COc1ccc(C(=O)/C=C/Nc2ccc([N+](=O)[O-])cc2C)cc1OC	-6.4%	0%	-3%	6%	12%	-15%	?	4%
COC(=O)CCCC(=O)NC1CCCN(C2Cc3ccccc3C2)C1 (stereo unspecified)	.	10%	-6%	3%	.	.	.	1%
